High-throughput results from PubChem.
KCNQ2 enhance: potentiators of rat KCNQ2 potassium channel. 0.54% of 310,000 active. CHO-K1 KCNQ2, FluxOR thallium flux fluorescence; hits give high values. B-score at 10 µM. O88943;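 active means fluorescence ratio B-score at least 3 SD of library B-scores, with initial fluorescence B-score within 3 SD, cut at about 5.3 in these data; same plate scores as AID 2156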;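 further: B-score of peak minus minimum over baseline fluorescence ratio after K+ and Tl+ stimulus; positive B-score means potentiation of KCNQ2 with more thallium influx and brighter signal; only the inactives scoring about 0 or higher are listed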
Target sequence (O88943 whole entry, looked up): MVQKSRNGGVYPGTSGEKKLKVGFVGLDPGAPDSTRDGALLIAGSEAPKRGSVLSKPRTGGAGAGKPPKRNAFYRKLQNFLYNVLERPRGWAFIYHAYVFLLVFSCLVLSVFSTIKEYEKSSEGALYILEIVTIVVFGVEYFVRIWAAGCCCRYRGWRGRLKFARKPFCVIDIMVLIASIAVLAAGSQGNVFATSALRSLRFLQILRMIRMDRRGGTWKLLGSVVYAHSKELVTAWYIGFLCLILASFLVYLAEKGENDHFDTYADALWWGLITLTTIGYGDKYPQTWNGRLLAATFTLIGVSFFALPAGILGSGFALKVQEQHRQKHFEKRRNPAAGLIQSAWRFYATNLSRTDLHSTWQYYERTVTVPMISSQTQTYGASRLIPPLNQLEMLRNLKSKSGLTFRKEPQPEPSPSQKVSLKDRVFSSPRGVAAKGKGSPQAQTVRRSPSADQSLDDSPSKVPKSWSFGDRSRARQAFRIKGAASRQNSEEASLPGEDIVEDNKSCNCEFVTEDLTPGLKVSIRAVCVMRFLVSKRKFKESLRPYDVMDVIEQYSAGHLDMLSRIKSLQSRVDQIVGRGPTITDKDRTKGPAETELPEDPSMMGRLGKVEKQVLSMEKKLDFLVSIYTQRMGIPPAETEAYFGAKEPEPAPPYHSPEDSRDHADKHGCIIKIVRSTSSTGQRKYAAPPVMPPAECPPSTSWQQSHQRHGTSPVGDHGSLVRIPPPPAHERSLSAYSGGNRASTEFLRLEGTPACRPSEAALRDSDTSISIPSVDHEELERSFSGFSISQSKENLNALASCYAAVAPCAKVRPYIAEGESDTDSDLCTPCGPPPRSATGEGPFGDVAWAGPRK
KCNQ2 enhance baseline: recorded beside KCNQ2 enhance, whose call it bears; B-score; compound at 10 µM; measured here: initial fluorescence intensity artifact check;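 brightness before thallium and not channel activity; 0 = typical well and far values either way flag optical interference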
Starred values were filed as active, the others as inactive.

Every second line gives: KCNQ2 enhance | KCNQ2 enhance baseline
Cc1cccc(NC(=O)Cn2c(=O)oc3ccccc32)n1
    1.1 | 2.4
COc1ccc2[nH]c(=O)c(CN(C(C)=O)C3CCCCC3)cc2c1
    0.04 | 0.02
C=CCC1NS(=O)(=O)OC2CCCC12 (stereo unspecified)
    1.8 | -0.85
C/C(N)=C(/C#N)C(=O)CSc1cc(C)c2ccccc2n1
    0.67 | -0.01
CCn1c(C)nc2cc(C(=O)N/N=C/c3ccc(OC)cc3)ccc21
    2.3 | -0.55
Cc1nn(C(C)C(=O)N2CCOCC2)c(C)c1[N+](=O)[O-] (stereo unspecified)
    1.3 | 1.3
COc1ccc(NC(=O)CCC(=O)Nc2nnc(C(C)C)s2)cc1Cl
    1.3 | -0.01
COC(=O)CCC(=O)Nc1ccc(NC(C)=O)cc1
    1.4 | 0.19
CN(NC(=O)CN1C(=O)c2ccccc2C1=O)C1=NS(=O)(=O)c2ccccc21
    0.25 | -1.3
N#C/C(C(=O)N1CCOCC1)=C1\Nc2ccccc2S1
    0.04 | 1.6
CC(NC(=O)Cn1cccc1)c1ccccc1 (stereo unspecified)
    0.65 | -1.1
CC1(C)CC(=O)C(C(c2cccc([N+](=O)[O-])c2)C2C(=O)CC(C)(C)CC2=O)C(=O)C1
    0.3 | 2.1
CC1C2(C)OC(=N)C(C#N)(C(C)O2)C1(C#N)C#N (stereo unspecified)
    0.29 | -0.07
CCOC(=O)NC(CC(=O)O)c1ccc(OCC)cc1 (stereo unspecified)
    0.9 | -1.2
COc1ccc(C(=O)NN2C(=S)N(c3ccc(OC)cc3)C(=O)C2CC(N)=O)cc1 (stereo unspecified)
    0.99 | -0.01
CC1(C)CC(=O)c2sc(NS(C)(=O)=O)nc2C1
    1 | 0.42
O=S(=O)(Nc1ccc(O)c2ccccc12)c1ccc(F)cc1
    3.8 | -1.5
CN(CC(=O)Nc1ccc2c(c1)OCO2)S(=O)(=O)c1ccc2c(c1)CCC(=O)N2
    1.9 | -0.81
CC1CN(C(=O)C(C)N2CCN(c3ccccc3Cl)CC2)CC(C)O1 (stereo unspecified)
    1.2 | -1.1
CCN(CC)C(=O)c1nn(Cc2ccccc2)c(=O)c2ccccc12
    0.11 | 0.3
O=C(Nc1ccccc1C(=O)Nc1nnc(C(F)(F)F)s1)c1ccccc1Cl
    1.6 | -1.2
Cc1ccc(CNC(=O)COC(=O)CCCOc2ccc(Cl)cc2Cl)cc1
    0.27 | -0.07
CC(=O)Nc1cc(OC(=O)c2ccco2)cc(OC(=O)c2ccco2)c1
    0.19 | -1.1
CCCc1cc(=O)n2[nH]c(-c3ccccc3)cc2n1
    2.3 | -1.5
O=C(COc1ccc2c(c1)CCC2)NCc1ccccc1
    2.6 | 0.08
O=C(OCc1ccc(Br)cc1)c1cccnc1
    0.01 | -1.8
COc1cc(CCCN2C(=O)C(=O)NC[C@@H]2Cc2ccc(O)cc2)cc(OC)c1OC
    0.98 | 1
O=C(CSc1cccc(C(F)(F)F)c1)NC(=O)c1ccccc1
    0.92 | -0.08
COc1ccccc1C(=O)C1CCCN(Cc2cccc3nccnc23)C1 (stereo unspecified)
    0.01 | 1.2
COCCN1C(=O)N[C@@H](CCc2ccccc2)[C@@H](C(=O)OC)[C@H]1C
    0.4 | 0.93

The list goes on, starting with the last 2 of the part before.
Every second line gives: KCNQ2 enhance | KCNQ2 enhance baseline
COc1ccccc1C(=O)C1CCCN(Cc2cccc3nccnc23)C1 (stereo unspecified)
    0.01 | 1.2
COCCN1C(=O)N[C@@H](CCc2ccccc2)[C@@H](C(=O)OC)[C@H]1C
    0.4 | 0.93
O=C(Nc1ccc(C(=O)NC2CCCCC2)cc1)c1cncc(Br)c1
    1.8 | -1.9
O=C(CSc1nnc(-c2cccc(Br)c2)o1)N1CCOCC1
    0.55 | -1.1
CC1CCCN(c2c([N+](=O)[O-])cc(C(=O)O)cc2[N+](=O)[O-])C1 (stereo unspecified)
    0.01 | -1.1
CSc1ccc(CNCC2CCCO2)cc1 (stereo unspecified)
    1.2 | 1.2
CCCCCc1c(O)nc(SCCN2CCOCC2)[nH]c1=O
    0.37 | -2.1
CC(NC(=O)C(=O)N1CCCCC1)C(c1cccs1)N1CCN(Cc2ccccc2)CC1 (stereo unspecified)
    0.73 | 0.2
CN(C)c1ccc(CNC(=O)C2CCN(S(=O)(=O)c3ccc4c(c3)oc(=O)n4C)CC2)cc1
    0.02 | 0.17
CC(C)NC(=O)CSc1nccc(-c2cccs2)n1
    0.75 | 1.1
O=C(NCC(=O)N(c1cccnc1)C(C(=O)NC1CCCC1)c1ccco1)c1cccs1 (stereo unspecified)
    0.73 | 0.94
CCN1C(=O)N(C)C(N(O)C(=O)NC)C1(C)C (stereo unspecified)
    0.05 | 2.3
Clc1ccc(C2=Nc3cc(Cl)ccc3OC2)cc1
    1.1 | 1.1
Cc1ccc(S(=O)(=O)NCCSc2nncn2C)cc1
    0.03 | 0.3
COc1ccc(OC)c(Nc2nc(N)c([N+](=O)[O-])c(NCc3ccccc3)n2)c1
    0.02 | 0.11
C=C(C)CN(CC)C(=O)CC1C(=O)NCCN1C (stereo unspecified)
    0.02 | -1.8
Cc1ccccc1-c1nc2cc(NC(=O)C3CC3)ccc2o1
    0.01 | -0.1
O=C(NNC(=O)C1CC(=O)N(Cc2ccccc2)C1)c1ccc(F)cc1 (stereo unspecified)
    1.4 | 0.19
CCc1n[nH]c2c1C(=O)CC(C)(C)C2
    0.06 | -1.5
CCn1cc(S(=O)(=O)NC2CCCCC2)cn1
    0.05 | 0.14
COc1ccc(C2NN=C(c3ccc(C)cc3)S2)cc1OC (stereo unspecified)
    0.69 | -1.3
CCc1ccc(/C=C2\SC(N3CCOCC3)=NC2=O)cc1
    1.6 | 0.03
Cc1ccc(S(=O)(=O)CC(=O)Nc2nnc(C(C)C)s2)cc1
    0.06 | 0.35
COc1ccc2c(c1)c1nc3ccccc3nc1n2CCCN1C(=O)c2ccccc2C1=O
    0.58 | 0.18
CCOC(=O)C1(Cc2ccccc2)CCN(Cc2nccn2CC)CC1
    0.27 | 0.35
COC(=O)c1ccc(OC(=O)CS(=O)c2ccccc2[N+](=O)[O-])cc1 (stereo unspecified)
    0.14 | -0.03
CC(C)C(=O)N(c1ccc2oc(=O)sc2c1)S(=O)(=O)c1ccccc1
    2 | 0.07
CC(C)Oc1ccc(CCC(=O)N/N=C/c2ccncc2)cc1
    1.1 | 0.39
COC(=O)c1c(NC(=O)C(=O)NCCCN2CCOCC2)sc2c1CCCC2
    0.89 | 0.48
O=C(NCCc1c[nH]c2ccccc12)/C(=C/c1ccco1)NC(=O)c1ccco1
    0.35 | -0.83
Cc1cc(C)cc(C(=O)NCCC(=O)NCc2cc(=O)n(C)c(=O)n2C)c1
    1 | 1.4
CCC(C)c1ccc(NC(=O)NCCN2CCCCC2)cc1 (stereo unspecified)
    2.8 | -0.67
Cc1cccc(N2CCN(C(=O)c3ccc4c(c3)NC(=O)C(CSCc3cccc(F)c3)N4)CC2)c1C (stereo unspecified)
    0.01 | -0.31
COc1cc([N+](=O)[O-])ccc1NC(=O)CN1CCN(C(=O)c2ccco2)CC1
    2.2 | 0.42
CCNc1ccccc(-c2ccc3ccccc3n2)c1=O
    0.16 | -0.34
CC1=CCC(C(=O)O)C(C(=O)Nc2ccc(-c3nc4ccc(C)cc4s3)cc2)C1 (stereo unspecified)
    0.08 | 1.7
O=C(Nc1ccc2nc(-c3cccnc3)[nH]c2c1)C1CCCCC1
    0.01 | -0.69
Clc1ccc(CN2C3=NCCCN3c3ccccc32)c(Cl)c1
    0.02 | -0.15
O=C(NC(=S)N1CCCc2ccccc21)c1ccccc1
    0.68 | 2.1
COc1ccc(NC(=O)COc2ccc(/C=C/c3cccc[n+]3C)cc2OC)cc1
    0.04 | 0.02
Cc1cccc(-n2nc3c(c2NC(=O)CCC2CCCCC2)CS(=O)C3)c1C (stereo unspecified)
    0.01 | 3.8
CSc1ncc(CN2CCC(C(=O)Nc3cccc(-c4cscn4)c3)CC2)cn1
    1.4 | 0.83
CN(C)S(=O)(=O)c1cccc(-c2nn(-c3ccccc3)cc2/C=C(/C#N)C(=O)NCc2ccco2)c1
    0.34 | -3.1
Brc1ccc2ncnc(NCc3ccco3)c2c1
    2.8 | -0.64
Cc1ccc(/C=C2/SC(=S)N(CCC(=O)N3CCOCC3)C2=O)cc1
    0.07 | -1.3
O=C(Nc1cccc(S(=O)(=O)N2CCCC2)c1)C1CCCN1C(=O)c1cccs1 (stereo unspecified)
    0.01 | 3.2
C#CCOc1ccc(Br)cc1C(c1c(C)[nH][nH]c1=O)c1c(C)[nH][nH]c1=O
    2.5 | -0.83
O=c1[nH]c(SCc2ccc(Cl)cc2)nc2[nH]ncc12
    0.09 | -1
COc1ccc(OC)c(CCNC(=O)C(=O)Nc2ccc3nc4n(c(=O)c3c2)CCCCC4)c1
    1.2 | 0.13
O=c1c2ccccc2nc2n1CCS2
    0.25 | 1.6
CC(C)(C)c1ccccc1NC(=O)N1CCNC(=O)C1CC(=O)Nc1ccc(F)cc1 (stereo unspecified)
    0.78 | -2.8
Cn1nc(-c2ccc(Cl)cc2)cc1NC(=O)CCCC(=O)O
    3.2 | -0.5
Cc1ccc2c(Cl)cc(Cl)c(OCC(=O)Nc3cccc(S(N)(=O)=O)c3)c2n1
    0.45 | 1.6
COC(=O)c1c(NC(=O)C2=COCCO2)sc(C)c1C
    0.49 | -2.1
O=C(CCc1ccccc1)N1CCN(c2ccccn2)CC1
    0.55 | 0.89
O=C(OCn1nnc2ccccc2c1=O)c1ccc2ncsc2c1
    1.3 | -0.39
CCOc1ccccc1-n1c(SCC(=O)NC2CCCC2)nnc1-c1ccoc1C
    0.7 | -0.47
Cc1cccc(C)c1N1CCN(c2cc(Cl)nc(N)n2)CC1
    2.1 | -0.57
Cc1cc(N)c(C)c([N+](=O)[O-])c1C
    0.29 | -0.42
CN1C(C(=O)Nc2ccc(F)cc2F)=CC(c2cccs2)=NS1(=O)=O
    0.42 | -0.11
O=C(NCC1CCS(=O)(=O)C1)Oc1ccccc1 (stereo unspecified)
    1 | 0.47
CCCc1nnc(NC(=O)CCC(=O)N2CCN(Cc3ccc(Cl)cc3)CC2)s1
    0.5 | 0.45

Six successive records already listed, quoted:
Every second line gives: KCNQ2 enhance | KCNQ2 enhance baseline
O=c1c2ccccc2nc2n1CCS2
    0.25 | 1.6
CC(C)(C)c1ccccc1NC(=O)N1CCNC(=O)C1CC(=O)Nc1ccc(F)cc1 (stereo unspecified)
    0.78 | -2.8
Cn1nc(-c2ccc(Cl)cc2)cc1NC(=O)CCCC(=O)O
    3.2 | -0.5
Cc1ccc2c(Cl)cc(Cl)c(OCC(=O)Nc3cccc(S(N)(=O)=O)c3)c2n1
    0.45 | 1.6
COC(=O)c1c(NC(=O)C2=COCCO2)sc(C)c1C
    0.49 | -2.1
O=C(CCc1ccccc1)N1CCN(c2ccccn2)CC1
    0.55 | 0.89

Further records.
Every second line gives: KCNQ2 enhance | KCNQ2 enhance baseline
CCN(CC)CCNC(=O)C1c2ccccc2C(=O)N(C)C1c1cn(C)c2ccccc12 (stereo unspecified)
    1.5 | -0.99
CCOC(=O)N1CCN(C(=O)c2ccc(CNS(=O)(=O)c3ccc(C)cc3)cc2)CC1
    1.7 | -2.8
O=C(NNC(=S)Nc1ccccc1Cl)c1ccncc1
    0.76 | -0.04
Cc1cccc(NC(=O)c2ccc3c(=O)n(CC4CCCO4)c(=S)[nH]c3c2)c1 (stereo unspecified)
    1 | -0.45
c1ccc(-c2csc(NC3CCCCC3)n2)cc1
    0.07 | -1.8
O=C(Cc1cccs1)Nc1ccc([N+](=O)[O-])cc1
    0.84 | -0.42
COc1ccc(-c2nc(CSCC(=O)N3CCC(C(N)=O)CC3)c(C)o2)cc1OC
    0.04 | -0.17
COc1ccccc1C(=O)NC(C(=O)NCCc1nc2ccccc2[nH]1)=C(C)C
    0.18 | -0.25
C=CCOc1ccc(/C=C2\SC(=S)N(NS(=O)(=O)c3ccc(C)cc3)C2=O)cc1
    7.7* | -1.3*
O=C(O)c1cnn2c(-c3ccccc3)ccnc12
    0.91 | -1.7
CCOC(=O)c1c(NC(=O)/C=C/C(=O)O)sc(C)c1-c1ccc(F)cc1
    0.71 | -0.6
O=C1C2C3c4ccccc4C(c4ccccc43)C2C(=O)N1/N=C/c1cccc(O)c1 (stereo unspecified)
    1.7 | -0.57
COC(=O)c1c(NC(=O)Cn2cc([N+](=O)[O-])cn2)sc2c1CCC2
    0.44 | -0.2
CCCNc1cc(=S)nc(N)[nH]1
    0.72 | -0.3
CC(C)Oc1ccc(N2C(=O)c3ccccc3C2=O)cc1
    1.4 | -1.1
Cc1ccc(S(=O)(=O)N2CCC(C(=O)NCC3CC3)CC2)cc1
    0.58 | -0.42
N#Cc1c(-c2ccccc2)[nH]c(=S)[nH]c1=O
    0.73 | 0.11
Cc1ccc(C)c(SCc2noc(C(=O)NC(C)C)c2C(=O)O)c1
    0.52 | -0.63
COc1cccc(NC(=O)N2CCCC2C(=O)NCc2ccc(Cl)cc2)c1 (stereo unspecified)
    0.52 | -0.91

This is a subset. The share of hits here may be higher or lower than overall.
